Bioassay records (PubChem)
KCNQ2 inh – KCNQ2 potassium channel inhibitors, primary screen, cell-based, CHO-K1, FluxOR thallium flux, B-score (AID 2156); O88943; 20 min; hits give low values; only compounds with negative scores are shown here; some inactives read as strong as hits; B-score at 10 µM; 310,000 compounds, 1.1% hits;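 active = fluorescence ratio B-score at most minus 3 library SDs, with starting brightness B-score within 2 library SDs, cut at about -5.5 in these data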
Target sequence (O88943 whole entry, looked up): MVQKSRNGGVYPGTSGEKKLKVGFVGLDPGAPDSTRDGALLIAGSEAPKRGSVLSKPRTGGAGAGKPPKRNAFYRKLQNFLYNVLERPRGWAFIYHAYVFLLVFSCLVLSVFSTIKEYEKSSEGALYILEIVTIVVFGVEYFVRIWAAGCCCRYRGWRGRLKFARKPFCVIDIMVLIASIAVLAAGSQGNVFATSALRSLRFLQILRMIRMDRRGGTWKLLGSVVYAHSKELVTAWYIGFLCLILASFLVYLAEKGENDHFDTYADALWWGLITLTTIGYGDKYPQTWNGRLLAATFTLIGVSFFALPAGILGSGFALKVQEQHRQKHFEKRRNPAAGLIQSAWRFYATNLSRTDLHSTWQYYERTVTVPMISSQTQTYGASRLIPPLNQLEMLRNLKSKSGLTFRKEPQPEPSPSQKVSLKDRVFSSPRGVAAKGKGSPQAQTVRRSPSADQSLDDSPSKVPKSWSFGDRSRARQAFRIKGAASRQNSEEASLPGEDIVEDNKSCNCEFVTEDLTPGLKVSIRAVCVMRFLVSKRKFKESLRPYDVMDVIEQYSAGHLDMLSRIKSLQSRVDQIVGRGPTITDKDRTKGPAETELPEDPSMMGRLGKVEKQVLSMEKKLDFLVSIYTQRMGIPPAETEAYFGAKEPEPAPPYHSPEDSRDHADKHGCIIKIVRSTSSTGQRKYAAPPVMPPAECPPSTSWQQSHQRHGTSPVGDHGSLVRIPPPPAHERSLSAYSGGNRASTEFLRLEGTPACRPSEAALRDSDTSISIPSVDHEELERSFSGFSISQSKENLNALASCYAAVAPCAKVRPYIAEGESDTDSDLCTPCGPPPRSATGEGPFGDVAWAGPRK
KCNQ2 inh baseline – further read-out of KCNQ2 inh, marked with its call; B-score; measured here: initial fluorescence intensity artifact check;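 brightness before thallium and not channel activity; 0 = typical well and far values either way flag optical interference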
Starred values were filed as active, the others as inactive; i = inactive.

Screens in order: KCNQ2 inh baseline	KCNQ2 inh
- Cc1cc(NC(=O)c2noc3c2CCc2ccccc2-3)no1
 : -1.62	i
- Cc1ccc(C)c(N(C)C(=O)c2cc3c(=O)[nH]c4ccc(C)cc4c3s2)c1
 : 0.72	i
- CCCC[C@@H]1C[C@H]1[C@@H](NC(=O)c1ccco1)c1ccc(C(=O)OC)cc1
 : -2.05	i
- CN1C(=O)N(c2cccc3ccccc23)C(n2cncn2)C1(C)C (stereo not drawn)
 : -0.33	i
- N#C/C(C(=O)NCc1ccco1)=C1/SC(Cc2ccc(F)cc2)C(=O)N1c1ccccc1 (stereo not drawn)
 : 2.25	i
- COc1ccccc1CCNC(=O)C(=O)NCC1OCCN1S(=O)(=O)c1ccc(Cl)cc1 (stereo not drawn)
 : -0.64	i
- O=C(CN(CC1CCCO1)C(=O)CNS(=O)(=O)c1ccccc1)NCc1ccco1 (stereo not drawn)
 : 2.23	i
- N#C/C(=C\c1cc(Br)ccc1F)C(=O)NC1CC1
 : -0.05*	-6.1*
- CNC(=S)N(CCc1c(C)[nH]c2ccccc12)Cc1cc(OC)c(OC)c(OC)c1
 : 0.39	i
- COc1ccc2cc(C(=O)C3CCCN(C(=O)c4csnn4)C3)ccc2c1 (stereo not drawn)
 : -0.08	i
- COc1ccc(C2(CNC(=O)c3ccccc3)CCOCC2)cc1
 : -1.54	i
- Cc1c(C)n(C)c2ccc(C(=O)NCCCN3CCCCC3C)cc12 (stereo not drawn)
 : 1.22	i
- CCC(C)(C)C1CCc2[nH]nc(C(=O)N/N=C(\C)c3ccco3)c2C1 (stereo not drawn)
 : -1.18	i
- O=C(/C=C/c1ncc(C(F)(F)F)cc1Cl)OCc1ccccc1
 : 0.08	i
- Cc1ccc(CNC(=O)C(=O)NCC2OCCN2S(=O)(=O)c2ccc3c(c2)OCCO3)cc1 (stereo not drawn)
 : -2.39	i
- O=C(O)c1cccc(CSc2ncccn2)c1
 : 0.58	i
- CC(=O)c1c(OC(=O)c2ccccc2)c2ccccc2n1C
 : 0.24	i
- O=C(NC1CCCCC1)c1ccc(OC2CCN(Cc3ccccn3)CC2)cc1
 : -1.75	i
- CCCCNC(=O)N(O)C1N(/N=C/c2ccccc2OC)C(=S)SC1(C)C (stereo not drawn)
 : -0.97	i
- CCc1nnc(NC(=O)CSc2nnc3ncccn23)s1
 : 1.8	i
- CC1CC(C)CN(C(=O)C2CCCN(S(=O)(=O)c3cnc[nH]3)C2)C1 (stereo not drawn)
 : 0.2	i
- CNC(=O)c1ccsc1NC(=O)c1ccc(S(=O)(=O)N2CCOCC2)cc1
 : 0.44	i
- CN1CCC(=NNC(=O)C(=O)Nc2ccccc2)CC1
 : -1.52	i
- CCOC(=O)CCC(=O)N(CCN(C(=O)CCC(=O)OCC)c1ccccc1)c1ccccc1
 : -0.19	i
- CN1c2ccccc2C(C)(C)C12CC(c1ccc(Cl)c(S(=O)(=O)N3CCCC3)c1)=NO2 (stereo not drawn)
 : 2.06	i
- OCC1(CC2CCCCO2)CCN(Cc2nc3ccccc3[nH]2)CC1 (stereo not drawn)
 : 1.77	i
- CC(C)(C)CC(=O)Nc1nn[nH]n1
 : -0.72	i
- CC[N+]1(CC)CC2=Cc3ccccc3CC2C1 (stereo not drawn)
 : 1.95	i
- COC(CNC(=O)c1ccc2c3c(onc13)-c1ccccc1C2=O)OC
 : 32.8	i
- O=C(NC1CCCCCC1)C1c2ccccc2C(=O)N1Cc1cccs1 (stereo not drawn)
 : -1.17	i
- O=[N+]([O-])c1ccc(-c2nc(C(Cl)Cl)c3ccccc3n2)cc1
 : -1.26	i
- COc1ccccc1NC(=O)C1CCN(C(=O)NCc2ccccc2)CC1
 : -2.04	i
- CC(C(=O)Nc1ccccc1-c1ccccc1)N1CCN(Cc2ccccc2)CC1 (stereo not drawn)
 : 1.16	i
- CCN(CC)S(=O)(=O)c1cccc(-c2nn(-c3ccccc3)cc2/C=C(\C#N)C(=O)NCc2ccco2)c1
 : 0.39	i
- COC(=O)[C@H](Cc1ccccc1)NC(=O)N1CCN(c2ccc(F)cc2)CC1
 : -0.01	i
- Cc1ccc(NC2=C(Cl)C(=O)OC2OC(C)C)cc1 (stereo not drawn)
 : -0.28	i
- CCOC(=O)CSc1nc(C)c2ccc(C)cc2n1
 : -0.7	i
- NS(=O)(=O)c1ccc(NC(=O)c2ccc(CNS(=O)(=O)c3cc(C(F)(F)F)ccc3Cl)cc2)cc1
 : 0.93	i
- O=C(/C=C/c1ccc(N2CCOCC2)cc1)c1ccccc1
 : -2.57	i
- Cc1ccc(-n2c(=O)cc(N3CCC(C)CC3)[nH]c2=O)cc1
 : 0.84	i
- COC(=O)c1cc(C(=O)OCC(=O)NNC(=O)c2cccs2)cc([N+](=O)[O-])c1
 : 0.81	i
- CCCN(CCC)C(=O)CCSCCC(=O)N(CCC)CCC
 : 0.17	i
- O=S(=O)(c1ccc(Cl)cc1)N1CCCC1c1nc(-c2cccc(Cl)c2)no1 (stereo not drawn)
 : -2.45*	-5.93*
- COc1ccc(C2=NN(C(=O)CSc3nnc(-c4ccccc4F)o3)C(c3ccco3)C2)cc1 (stereo not drawn)
 : 1.67	i
- COc1ccc(Nc2nnc(SCC3CCCO3)s2)cc1 (stereo not drawn)
 : 0.01	i
- COc1ccc(OC)c(C(=O)/C=C/c2ccccc2C(F)(F)F)c1
 : -0.1	i
- CN(C)CCNc1ncnc2c1sc1nc(-c3ccccc3)c3c(c12)CCCC3
 : 0.95*	-7.77*
- COc1cc2[nH]c(C(=O)NCC3CCCO3)cc2c(OC)c1OC (stereo not drawn)
 : -0.42	i
- CCOc1ccc2nc(N3C(=O)CNC3=S)sc2c1
 : 1.02	i
- CCN(CC)CCNC(=O)c1sc2ncn(CC(=O)Nc3ccc(C)c(Cl)c3)c(=O)c2c1C
 : 1.33	i
- Cc1c(Cl)cccc1NC(=O)c1nc(C)n(-c2cc(OC(C)C)c(Cl)cc2Cl)n1
 : 1.51	i
- CCOC(=O)N1CCC(NS(=O)(=O)c2ccc(C)cc2)CC1
 : 1.21	i
- O=C(O)c1ccnc(C(=O)O)c1
 : 0.15	i
- COc1ccc(/C(N)=N/OC(=O)CC2CCCCC2)cc1
 : 0.21	i
- Nc1c(Cl)cc(-c2[nH]c3cc(C(=O)NCCO)ccc3c(=O)c2O)cc1Cl
 : 1.57	i
- COc1cc(NC(=O)c2ccc3c(c2)OCCO3)ccc1NC(=O)c1ccco1
 : 0.37	i
- O=C(NCC(c1ccco1)N1CCc2ccccc21)c1ccccc1Cl (stereo not drawn)
 : 0.79	i
- O=C(O)c1cccc(S(=O)(=O)Nc2ccccc2Cl)c1
 : -0.68	i
- CCC1(c2ccccc2)NC(=O)N(CC(=O)NCc2ccc(F)cc2)C1=O (stereo not drawn)
 : -0.64	i
- O=C(NNS(=O)(=O)c1ccc(Cl)cc1)c1cccc(S(=O)(=O)N2CCOCC2)c1
 : 0.02	i

New compounds follow
Screens in order: KCNQ2 inh baseline	KCNQ2 inh
- O=C(COc1ccc(S(=O)(=O)N2CCCC2)cc1Cl)NCc1ccc2c(c1)OCO2
 : 0.48	i
- COCCN1CCN(C(=O)c2cc(COc3ccc(F)cc3F)on2)CC1
 : 0.95	i
- COc1ccccc1C(=O)N1CCN(Cc2ccc3c(c2)OCO3)CC1
 : -0.15	i
- O=C(NNC(=S)Nc1ccc(F)cc1)c1ccccc1OC(F)F
 : -0.27	i
- CC(=O)Nc1ccc(S(=O)(=O)NCC(=O)OCC(=O)N2CCc3ccccc32)cc1
 : 1.19	i
- Cc1cccc(OCc2nnc(SCCC(=O)O)n2-c2ccccc2)c1
 : 1.17	i
- O=C(COC(=O)c1ncc(Cl)c(Cl)c1Cl)NCc1cccs1
 : 0.93	i
- CCn1nnnc1SCC(=O)Nc1nc2ccc(OC)cc2s1
 : -0.02	i
- CNC(=O)c1c(NC(=O)c2ccc(S(=O)(=O)N(C)c3ccccc3)cc2)sc2c1CCN(C(C)C)C2
 : 1.43	i
- CCOC(=O)CCNC(=O)N1CCCC(N(C)CCc2ccccc2)C1 (stereo not drawn)
 : -0.35	i
- CCn1cc(Br)c(C(=O)NC(C)c2ccccc2)n1 (stereo not drawn)
 : -1.13	i
- CC(=O)c1cccc(-c2ccc3c(=O)[nH]c(Nc4ccccc4)cc3c2)c1
 : 0.07	i
- COC(=O)c1ccc(NC(=O)c2cc[n+](Cc3ccccc3)cc2)cc1
 : 0.49	i
- COC(=O)c1ccc(/C=N/N2CCN(Cc3ccc(Cl)cc3)CC2)cc1
 : 1.72	i
- COC(=O)/C(C#N)=C/c1c(N2CCN(c3cccc(Cl)c3)CC2)nc2c(C)cccn2c1=O
 : 2.95	i
- COc1nc(Nc2cccc(C)c2)nc(N2CCCCC2)n1
 : -0.06	i
- CCOc1ccc(CCNC(=O)CN2C(=O)CCSc3ccccc32)cc1OCC
 : -0.49	i
- CN1CCc2c(sc3c2c(=O)n(-c2ccccc2)c2nncn32)C1
 : -0.41	i
- COCCCNC(=S)N/N=C/c1ccc2ccccc2c1
 : -0.17	i
- CCN(CC)CCCN(C(=O)c1ccc(Br)cc1)c1nc(-c2ccc(OC)cc2)cs1
 : -1.36	i
- COc1ccc(-n2cc(C(=O)c3ccccc3O)cn2)cc1
 : -0.77	i
- Cc1cc(C)nc(NC2=NCC(=O)N2c2cc(Cl)cc(Cl)c2)n1
 : 0.05	i
- Cc1ccc(Sc2ncccc2NC(=O)c2ccccc2Cl)cc1
 : -2.06	i
- O=C(/C=C/c1ccco1)N1CCCC(c2ccccc2)C1 (stereo not drawn)
 : 1.74	i
- CCCC(=O)Nc1cc(-c2nn(C)c(=O)c3ccccc23)ccc1N1CCCCC1
 : 1.03	i
- COC(=O)c1cc(NC(=O)CN2CCc3cc4c(cc3C2)OCCCO4)cc(C(=O)OC)c1
 : 0.45	i
- CC(=O)Nc1ccc(OCc2nnc(-c3ccccc3)o2)cc1
 : -0.26	i
- Cc1cccc(NC(=S)NCCc2ccc3c(c2)OCCO3)c1C
 : -0.4	i
- CCN(C(=O)C1CCN(c2nc(-c3ccc(OC)cc3)no2)CC1)c1ccccc1
 : -1.41	i
- COC(=O)c1ccc(C23CC4(C2)[C@H](CN(CC2CCCCC2)[C@@H]4c2ccccc2)C3c2ccccc2)cc1 (stereo partly drawn)
 : -0.55	i

Five consecutive records already listed, for reference:
Screens in order: KCNQ2 inh baseline	KCNQ2 inh
- O=C(COc1ccc(S(=O)(=O)N2CCCC2)cc1Cl)NCc1ccc2c(c1)OCO2
 : 0.48	i
- COCCN1CCN(C(=O)c2cc(COc3ccc(F)cc3F)on2)CC1
 : 0.95	i
- COc1ccccc1C(=O)N1CCN(Cc2ccc3c(c2)OCO3)CC1
 : -0.15	i
- O=C(NNC(=S)Nc1ccc(F)cc1)c1ccccc1OC(F)F
 : -0.27	i
- CC(=O)Nc1ccc(S(=O)(=O)NCC(=O)OCC(=O)N2CCc3ccccc32)cc1
 : 1.19	i

Later entries.
Screens in order: KCNQ2 inh baseline	KCNQ2 inh
- O=S(=O)(c1ccc(Cl)nc1)N1CCCCC1
 : -0.68	i
- O=C(CSc1cccc[n+]1[O-])Nc1ccc([N+](=O)[O-])cc1Cl
 : 0.64	i
- CCn1cc(S(=O)(=O)Nc2ccc3c(c2)OCCO3)cn1
 : 0.69	i
- NC(=O)c1ccccc1OC1CCC1
 : 0.78	i
- CCCCN(CC(=O)NC(C)(C)C)C(=O)C(=O)Nc1ccc2c(c1)OCCO2
 : -1.08	i
- Cn1c2c(c(=O)n(C)c1=O)C(C(F)(F)F)(C(F)(F)F)N=C(CCC1CCCCC1)N2
 : 0.53	i
- Cc1cc(C)c(C#N)c(Cl)n1
 : -0.07	i
- N#C/C(=C\c1c(F)cccc1Cl)c1nn(-c2ccccc2)c(-n2cccc2)c1C#N
 : -1.82	i
- Cc1ccc(C(C)(C)C)c(OCCCn2ccnc2)c1
 : 1.88	i
- CCCn1c2c(c(O)c(C(=O)NCc3ccccc3)c1=O)CCCC2
 : -0.34	i
- O=C(CCc1nc2ccccc2s1)N1CCN(c2ccccc2)CC1
 : -0.19	i
- Cc1ccc(Cc2nc(-c3ccncc3)no2)cc1
 : 1.64	i
- O=C(c1ccco1)N1CCN(CC(=O)N(C2CCCCC2)C2CCS(=O)(=O)C2)CC1 (stereo not drawn)
 : -0.94	i
- Cc1ccc(OCCCC(=O)NC(C)c2ccccc2)cc1 (stereo not drawn)
 : 0.29	i
- Cc1cnn(-c2cc(Oc3ccccc3)ncn2)c1
 : -0.21	i
- CCC(C)C(=O)N1CCCC(c2nc(-c3cccs3)no2)C1 (stereo not drawn)
 : -0.7	i
- Cc1cc(Cl)ccc1OCC(=O)N(Cc1ccco1)C1CCS(=O)(=O)C1 (stereo not drawn)
 : -1.24	i
- CN(C)CCCN1C(=O)CSC1c1ccccc1 (stereo not drawn)
 : -1.29	i
- C/C(CC(=O)N1CCN(C=O)CC1)=N\NC(=O)c1ccc([N+](=O)[O-])cc1
 : -0.71	i
- O=C(NC(=O)c1ccccc1)Nc1ccccn1
 : 0.76	i
- Cc1ccc(-c2nc(SCC(=O)NCC3CCCO3)c(-c3ccc(C)cc3)[nH]2)cc1 (stereo not drawn)
 : 1.71	i
- CCOC(=O)Cc1nnc(NC(=O)c2ccco2)s1
 : 1.5	i
- CNCc1c(OCc2ccc(F)cc2)ccc2ccccc12
 : -1.65	i
- CCOC(=O)C1=C(C)OC(N)=C(C#N)C1c1ccc(OC)c(C)c1OC (stereo not drawn)
 : -0.54	i
- O=C(c1nn2c(C(F)(F)F)cc(-c3cccs3)nc2c1Cl)N1CCCc2ccccc21
 : 0.04	i
- COc1cccc(N2CCN(C(=O)CCc3nnc4ccc(N5CCOCC5)nn34)CC2)c1
 : -0.33	i
- CCCCNC(=S)Nc1ccc(Oc2ccccc2)cc1
 : 0.52	i

Laid out differently: 4 of the compounds above
KCNQ2 inh baseline,KCNQ2 inh,smiles
0.01,i,COc1ccc(Nc2nnc(SCC3CCCO3)s2)cc1 (stereo not drawn)
0.05,i,Cc1cc(C)nc(NC2=NCC(=O)N2c2cc(Cl)cc(Cl)c2)n1
1.51,i,Cc1c(Cl)cccc1NC(=O)c1nc(C)n(-c2cc(OC(C)C)c(Cl)cc2Cl)n1
0.2,i,CC1CC(C)CN(C(=O)C2CCCN(S(=O)(=O)c3cnc[nH]3)C2)C1 (stereo not drawn)

These rows are one share of the data, so the mix of outcomes need not match the whole.
